Source: PubChem BioAssay
Calb biofilm kill: mixtures killing C. albicans biofilm | C. albicans biofilm persisters + clotrimazole, fluorescence viability; primary screen in compound mixtures of four per well | inhibition, % at 7.6 µM | 120,000 tested, 0.02% active;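 active = inhibition above 30.3% in the primary screen of four-compound pools, then above 30% when the compound was retested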;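 note: compounds exposed to preformed 24 h biofilms for 48 h; the number belongs to the whole pool; some results filed as inactive read as strong as hits; inactives centre near 12; 0% = biofilm with clotrimazole alone and 100% = kill control; retested singly at about 60 µM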
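System: C. albicans CAF4-2 wild-type biofilms; Medium: RPMI/MOPS medium, pH 7.0; Reagent: Clotrimazole, 50 µg/mL; Times: biofilm formation 24 h, compound exposure 48 h, 37 °C; Detection: 2-h Alamar Blue fluorescence, 535/590 nm excitation/emission; Evaluation: percent inhibition of biofilm viability.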
The depositor's hits bear a star. Some of the compounds tested. The share of hits here may be higher or lower than overall.

SMILES	Calb biofilm kill
N/C(=N\OC(=O)N1c2ccccc2Sc2ccccc21)c1ccc(Br)cc1	3
CN1CCN(c2cc3c(cc2F)c(=O)c(C(=O)O)cn3CCF)CC1	15
CCOc1cc(C(=O)NC)cc(Br)c1OCc1ccccc1	-5
Cc1ccc(CNC(=O)CSc2ccc(-c3ccccn3)nn2)cc1	16
COc1ccccc1-n1c(C)c2c(OC)cccc(=O)c2c1C	6
O=C1N(Cc2cccc(Cl)c2)C[C@@H]2C[C@@H](c3cccn3-c3cccnc3)N3CCC[C@@]123	0
NC(=O)COC(=O)/C=C/c1cccc(Br)c1	10
CCCCCn1c(NC2CCCCC2)nc2c1c(=O)[nH]c(=O)n2C	15
CN(C)S(=O)(=O)c1cccc(NC(=O)CSc2nc3ccccc3n2-c2ccccc2)c1	17
Cc1nc2ccc(C(=O)O)cc2nc1C	0
COc1ccc(-c2cc(C(F)(F)F)nc(SCC(=O)N(C)Cc3cnn(C)c3C)n2)cc1OC	17
Cc1ccccc1Nc1ccc(S(=O)(=O)N2CCOCC2)cc1[N+](=O)[O-]	6
O=C(COc1ccc([N+](=O)[O-])cc1)NCCC1=CCCCC1	2
CCCS(=O)(=O)N1CCN(S(=O)(=O)c2ccccc2[N+](=O)[O-])CC1	11
NC(=O)[C@H](Cc1cc2ccccc2s1)NC(=O)[C@@H]1CC2(CC(c3cccc(NC(=O)[C@@H]4CCC(=O)N4)c3)=NO2)CN1C(=O)/C=C/Sc1ccccc1 (stereo not given in full)	10
CCN(CC)c1nc2cc(C)ccc2cc1/C=C(\C#N)C(N)=O	12
CN(c1ccccc1)c1nc(N)c([N+](=O)[O-])c(N2CCCCC2)n1	18
COc1ccc(-c2cc(C(F)F)n3ncc(C(=O)N4CCc5ccccc5C4)c3n2)cc1	12
OC(CNCCNc1ncccc1C(F)(F)F)Cn1ccc2ccccc21 (stereo not given)	16
c1ccc(C2=Nn3c(nnc3-c3cccs3)SC2)cc1	25
COC(=O)C/C=C/[C@@H](C)[C@@H](/C=N/OCC[C@@H]1C=C[C@H](OC(C)=O)[C@@H](COC(C)=O)O1)NS(=O)(=O)c1ccc(C)cc1	6
NC(=O)C1CCN(Cc2nc3cc(C(F)(F)F)ccc3c(=O)[nH]2)CC1	10
CC(C)(C)NC(=O)c1cccc(NC(=O)c2ccco2)c1	3
C/C(=N/NC(=O)c1ccoc1C)c1ccc(NC(=O)c2ccncc2)cc1	6
CC(C)NC(=O)C(Cc1ccccc1)N1C(=O)c2ccccc2C1=O (stereo not given)	13
Cc1ccccc1-n1c(C)nnc1SCC(=O)NC1CCCc2ccccc21 (stereo not given)	-1
COc1ccc(N(CC(=O)NCc2ccc(C)cc2)S(=O)(=O)c2ccccc2[N+](=O)[O-])c(OC)c1	10
COCCNC(=O)c1cc(C(=O)CC(C)C)c[nH]1	10
CCCNC(=O)Cn1nc(C(F)(F)F)c2c1CCC2	3
COc1ccc(CC2(CO)CCN(Cc3c(C)nn(C(C)C)c3C)CC2)cc1	12
CC(C)NC(=O)CSc1nc(-c2ccccc2)cs1	17
COc1ccc(OC)c(NC(=O)C2CCC(CNc3c(N4CCOCC4)c(=O)c3=O)CC2)c1 (stereo not given)	23
CC(C)(C)S(=O)(=O)/C(C#N)=N/Nc1ccc(C#N)cc1	7
CCOc1ccc2nc(NC(=O)Nc3cccs3)sc2c1	11
COc1ccc(CCNC(=O)CSc2ccsc2[N+](=O)[O-])cc1OC	17
CC(=O)Nc1ccc(C(=S)NCC2(N(C)C)CCCCC2)cc1	6

By substructure: the compounds so far with an aryl thioether with sulfur outside any ring.
SMILES	Calb biofilm kill
Cc1ccc(CNC(=O)CSc2ccc(-c3ccccn3)nn2)cc1	16
CN(C)S(=O)(=O)c1cccc(NC(=O)CSc2nc3ccccc3n2-c2ccccc2)c1	17
COc1ccc(-c2cc(C(F)(F)F)nc(SCC(=O)N(C)Cc3cnn(C)c3C)n2)cc1OC	17
NC(=O)[C@H](Cc1cc2ccccc2s1)NC(=O)[C@@H]1CC2(CC(c3cccc(NC(=O)[C@@H]4CCC(=O)N4)c3)=NO2)CN1C(=O)/C=C/Sc1ccccc1 (stereo not given in full)	10
Cc1ccccc1-n1c(C)nnc1SCC(=O)NC1CCCc2ccccc21 (stereo not given)	-1
CC(C)NC(=O)CSc1nc(-c2ccccc2)cs1	17
COc1ccc(CCNC(=O)CSc2ccsc2[N+](=O)[O-])cc1OC	17

Additional results follow:
SMILES	Calb biofilm kill
CCCCC(=O)Nc1ccccc1N1CCOCC1	13
O=C(NCC(=O)N(c1ccccc1F)C(C(=O)NC1CCCC1)c1ccco1)c1ccco1 (stereo not given)	1
CCSc1ncc(CO)c(N)n1	16
CC(C)CNC(=O)c1cccc(NC(=O)Cc2ccc(Cl)cc2)c1	4
COc1ccccc1N=c1c2c([N+](=O)[O-])cc([N+](=O)[O-])cc2n(O)n1-c1ccccc1OC	14
O=C(CSc1nnc(-c2ccccc2)n1-c1ccc(Cl)cc1)NNC(=S)Nc1ccccc1	7
COc1ccc(NC(=O)c2cc(S(=O)(=O)NCC3COc4ccccc4O3)ccc2F)cc1 (stereo not given)	19
CCOc1ccc(C(CC(=O)O)NC(=O)CCCOc2ccc(Cl)cc2C)cc1 (stereo not given)	5
CCN(CC)c1ccc(C(=O)NC(=S)Nc2cc(S(=O)(=O)N3CCOCC3)ccc2-n2cncn2)cc1	7
c1ccc(Oc2cccc(OCCCCN3CCCC3)c2)cc1	4
COc1cc(/C=C2\SC(=S)N(CC(=O)Nc3ccc(O)cc3)C2=O)cc(OC)c1OC	-4
O=C(C[n+]1ccc(/C=N/O)cc1)N1CCCCC1	27
Cc1cccc(N2C(=O)/C(=C\c3ccc(OC(F)F)cc3)c3ccccc3C2=O)c1	46
CCN(CC)CCOc1ccccc1C(C)=O	23
CCS(=O)c1scc(-c2ccc(Cl)cc2)c1C#N (stereo not given)	15
N/C(Cn1cncn1)=N\NC(=O)C(=O)Nc1ccccc1	-5
CCCCC(=O)N(CCC)CCC	19
COc1ccc(C(CNC(=O)c2ccc(S(=O)(=O)N(C)C)cc2)N2CCCC2)cc1 (stereo not given)	6
Cc1cc(C(C)(C)C)cc(C)c1Cn1c2[n+](c3ccc(C(F)(F)F)cc31)CCCCC2	17
O=C1C2C3C=CC(C2C(=O)N1c1ccccc1O)C1C2C(=O)N(c4ccccc4O)C(=O)C2C31 (stereo not given)	27
COc1ccc2c(c1)C(=O)/C(=C/C=C/c1ccccc1)CC2	14
CCOC(=O)c1ccccc1NC(=O)Cn1c(=O)n(Cc2ccccc2)c(=O)c2c(C)c(C)sc21	18
O=C(c1ccccc1)c1n[nH]c(-c2ccccc2)cc1=O	25
Clc1ccc(CNc2ccccn2)cc1	11
C=CCOc1cccc(C(=O)NC(c2ccccc2)C(C)C)c1 (stereo not given)	15
Cc1ccc(S(=O)(=O)NCCC(c2ccccc2)c2ccco2)cc1 (stereo not given)	16
CCCNC(=S)N1CC2(C)CN(C(=O)C(=O)OCC)CC(C)(C1)C2=O	23
CCN(CC)CCN1C(=O)C(O)=C(C(=O)c2cc3cccc(OC)c3o2)C1c1ccc(F)cc1 (stereo not given)	5
Cc1cc(-c2nn(C)c(=O)c3ccccc23)ccc1CNC(=O)NC1CCCCC1	6
COC(=O)Cc1ccc(N(Cc2ccccc2F)S(=O)(=O)c2ccc(C)cc2)cc1	-3
CCOC(=O)c1c(NC(=O)C(C)S(=O)(=O)c2cn(CC)c3ccccc23)sc2c1CCCC2 (stereo not given)	16
Cc1ccc(CNC(=O)CN(CCc2ccccc2)S(C)(=O)=O)cc1	20
CCOC(=O)CSC(=S)NC(=O)c1ccc(OC)cc1	20
CC(=O)C1C(=O)C=C(c2cccs2)CC1c1ccccc1 (stereo not given)	18
COc1ccc(OC)c(S(=O)(=O)NCCC(C)C)c1	18
COc1cc(CNCc2ccccc2)c(Br)cc1OC1CCCC1	11
CN1CCN(CC(=O)Nc2nc3c(s2)CCCC3)CC1	23
Cc1ccc(NC(=O)[C@@H]2CCCN2S(=O)(=O)c2ccccc2F)cc1S(=O)(=O)N1CCOCC1	10
Cc1cc(Br)ccc1SCC(=O)OCC(=O)NC(C)c1ccccc1 (stereo not given)	6
CCC(=O)Nc1ccc(C(=O)NNC(=O)COc2cc(C)ccc2C)cc1	12
COC(=O)C(C)NC(=S)N1CCN(c2c(F)cc3c(=O)c(C(=O)O)cn(C4CC4)c3c2OC)CC1C (stereo not given)	4
COc1ccc(C(CC(=O)Nc2cc([N+](=O)[O-])ccc2OC)c2ccccc2)cc1 (stereo not given)	4
CSc1snnc1-c1ccccc1	10
O=C1C(NS(=O)(=O)c2ccc(Cl)cc2)=C(N2CCCCC2)C(=O)c2ccccc21	-1
COc1ccc(CNC(=O)c2cc(COc3c(F)cccc3F)on2)cc1OC	2
CC(=O)Oc1ccc2c(=O)c(/C=N/c3cc(=O)[nH]c(=S)[nH]3)coc2c1	14
CC(=O)c1c(-c2ccc(Cl)cc2)c2ccccc2[nH]c1=O	26
Clc1ncnc2scc(-c3ccc(Br)cc3)c12	16

Reprinted at random: 5 compounds from above.
SMILES	Calb biofilm kill
CN1CCN(CC(=O)Nc2nc3c(s2)CCCC3)CC1	23
CC(=O)Oc1ccc2c(=O)c(/C=N/c3cc(=O)[nH]c(=S)[nH]3)coc2c1	14
CCC(=O)Nc1ccc(C(=O)NNC(=O)COc2cc(C)ccc2C)cc1	12
CSc1snnc1-c1ccccc1	10
CC(=O)c1c(-c2ccc(Cl)cc2)c2ccccc2[nH]c1=O	26

Later entries
SMILES	Calb biofilm kill
COc1ccc(CN2CCNC(=O)C2CC(=O)N2CCCO2)c(OC)c1 (stereo not given)	29
Cc1cc(/C=C2\SC(=Nc3ccc(N4CCOCC4)cc3)N(C)C2=O)c(C)n1-c1cccnc1	-2
COc1ccc(NC(=O)C(c2cc3c(cc2[N+](=O)[O-])OCO3)N(C)c2ccccc2)cc1 (stereo not given)	16
CN1CCN(CCC(=O)N/N=C/c2ccccc2F)CC1	14
Cc1ccc(NC(=O)CN(C)CC(=O)Nc2ccc(N3CCOCC3)cc2)cc1F	7
O=C(NCc1ccco1)c1ccc2c(c1)N(Cc1ccccc1)CCS2	21
CCN(CC)CCN(C(=O)CN1C(=O)CCC1=O)c1nc2cc3c(cc2s1)OCO3	19
O=C(OC(C(=O)NCc1ccco1)c1ccc(Cl)cc1)c1cccs1 (stereo not given)	15
O=C(O)C1CCCCC1C(=O)NCc1ccc(Cl)c(Cl)c1 (stereo not given)	9
O=C(Nc1nc2ccccc2[nH]1)c1ccc([N+](=O)[O-])cc1	7
COCc1cc(=O)[nH]c(SCC(=O)c2ccccc2)n1	7
CN1C2=CC=CC=CC2=[N+](C)C12C=CC(=[N+]([O-])[O-])C=C2[N+](=O)[O-] (stereo not given)	10
CCOC(=O)c1cnc2c(cnn2C)c1Oc1ccc(OC)cc1	16
COc1ccccc1NC(=S)NCc1ccc2c(c1)cc(C)n2C	11
N#CC1=C(S)N(c2ccc(F)cc2)C(c2ccco2)NC1=O (stereo not given)	4
COc1ccccc1Oc1ncnc2c1cnn2-c1ccccc1	15
Cc1cc(C)cc(C(=O)Nc2ccc(NC(=O)Cc3ccccc3)cc2)c1	-5
O=C(Nc1cccc(C(F)(F)F)c1)c1cccc(NS(=O)(=O)c2ccc(Br)c(C(=O)O)c2)c1	8
COc1cccc(S(=O)(=O)Nc2ccc(C(=O)Nc3ccncc3)cc2)c1	8
C#CCOCCOCCOCCNc1nc(N2CCN(C(=O)[C@H](CCC(=O)O)n3cc(C(N)CO)nn3)CC2)nc(N2CCN(C(=O)[C@H](CCCCN)n3cc(C(N)[C@H](C)CC)nn3)CC2)n1 (stereo not given in full)	14
CCCN(CC(=O)Nc1ccc(C)cc1Br)CC(=O)Nc1ccc(F)c(F)c1F	14
CN(C)c1cccc(C(=O)OCC(=O)N(Cc2ccccc2)C2CCS(=O)(=O)C2)c1 (stereo not given)	5
O=C(CCNC(=O)c1ccc([N+](=O)[O-])cc1)N/N=C/c1ccc(F)cc1	1
CCN1CCN(CC(=O)N2N=C(c3cccs3)CC2c2ccc(F)cc2)C(=O)C1=O (stereo not given)	-3
CCCCCCOc1ccc(C(=O)NCCCn2ccnc2)cc1	12
Cc1cccc(C)c1OCc1n[nH]c(=S)n1N	5
CCOC(=O)C1(Cc2ccccc2)CCN(Cc2cnn(-c3ccccc3)c2)CC1	13
CC(=O)Nc1ccc(C(=O)NN2C(=O)c3ccccc3C2=O)cc1	8
Cn1c(=O)n(C)c2cc(NC(=O)c3cccc([N+](=O)[O-])c3)c(Br)cc21	-5
CCn1c2ccccc2c2cc(NC(=O)COC(=O)c3ccccc3O)ccc21	26
Cn1cccc1/C=N/N1CCN(Cc2ccccc2Cl)CC1	38
O=C(Oc1ccc2c(c1)O/C(=C\c1ccncc1)C2=O)c1cccs1	14
CCOC(=O)c1c(C)n(-c2ccc(C)cc2)c2ccc(OCC(O)CN3CCN(C)CC3)cc12 (stereo not given)	7
O=C(CSc1ccc(Cl)cc1)Nc1ccc(-c2nc3ccccc3[nH]2)cc1	5
Cc1nn(C(C)(C)C)c(NC(=O)c2ccc(Cl)cc2)c1Br	23
CC(C)(C)C(=O)O/N=C(\N)COc1cccc(Cl)c1	17
CC(=O)CC(=O)Nc1nc(C)cc(C)n1	16
CCc1cccc(CC)c1NC(=O)COC(=O)CCc1cc(OC)c(OC)c(OC)c1	10
CC(C)C/C(O)=C/c1nc2cc(Cl)ccc2oc1=O	0
COc1cccc(N=CC2=C(O)CCCC2=O)c1	-1
c1csc(-c2nnc(COc3ncnc4sccc34)o2)c1	16
COc1ccc(NC(=O)/C=C/C(=O)O)c(OC)c1	10
CCC1=NN2C(=N)/C(=C\c3cccn3-c3ccc(C)cc3C)C(=O)N=C2S1	16
Cc1cc(C)n(NC(=S)NC2CCCC2)c(=O)c1C#N	20
